Bioassay records (PubChem BioAssay)
ALR inh: inhibitors of human sulfhydryl oxidase ALR; purified ALR, DTT oxidation, H2O2 HRP-luminol luminescence; inhibition, % (test concentration not listed); 290,000 compounds, 3.8% hits; P55789;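 active = mean and each replicate at 75% or more; inconclusive = only one of the two met; inactive = neither met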;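 also: stock transfer was 7.5 nL into about 7.5 µL; 0% = neutral wells and 100% = wells with inactivated enzyme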
Target sequence (P55789 whole entry, looked up): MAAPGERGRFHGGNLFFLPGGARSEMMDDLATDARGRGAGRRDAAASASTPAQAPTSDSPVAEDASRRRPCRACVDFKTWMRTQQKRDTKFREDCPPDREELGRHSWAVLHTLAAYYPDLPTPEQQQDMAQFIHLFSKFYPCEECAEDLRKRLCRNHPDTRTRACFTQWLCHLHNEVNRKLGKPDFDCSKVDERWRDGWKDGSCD
AF4-AF9 inh: inhibitors of human MLL-AF4/AF9 interaction; P42568; AlphaScreen, biotin-AF4 peptide binding to FLAG-AF9; inhibition, % at 10 µM; 350,000 compounds, 0.47% hits; AID 651704;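 active = every replicate reaching a set inhibition limit, whatever the replicate mean, cut at about 25% in these data; inconclusive = mean inhibition reaches that limit but some replicates miss it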;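 also: 0% = plate neutral control median and 100% = total signal loss; the record names both 10 and 1 µM as test concentration; the first replicate is given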
Target sequence (P42568 whole entry, looked up): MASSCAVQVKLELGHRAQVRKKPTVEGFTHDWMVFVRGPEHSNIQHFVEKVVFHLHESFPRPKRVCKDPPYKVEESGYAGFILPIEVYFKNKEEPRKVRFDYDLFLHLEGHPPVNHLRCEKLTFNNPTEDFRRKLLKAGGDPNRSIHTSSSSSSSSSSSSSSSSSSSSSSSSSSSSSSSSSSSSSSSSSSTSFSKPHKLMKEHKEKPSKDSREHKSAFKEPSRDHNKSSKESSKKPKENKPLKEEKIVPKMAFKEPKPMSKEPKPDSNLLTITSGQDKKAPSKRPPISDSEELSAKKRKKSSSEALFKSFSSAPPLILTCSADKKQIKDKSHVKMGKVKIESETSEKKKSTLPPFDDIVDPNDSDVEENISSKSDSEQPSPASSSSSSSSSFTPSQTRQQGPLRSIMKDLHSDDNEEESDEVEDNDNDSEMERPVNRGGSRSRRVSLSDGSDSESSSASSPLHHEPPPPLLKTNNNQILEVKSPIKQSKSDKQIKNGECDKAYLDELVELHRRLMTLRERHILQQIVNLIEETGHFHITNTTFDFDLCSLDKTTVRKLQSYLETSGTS
E coli growth: inhibitors of Escherichia coli growth | OD600 absorbance (no concentration beside the values) | 330,000 compounds, 0.21% hits | AID 1053175 | OD600, 23 h; active compounds read low;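 active = OD600 absorbance below the run mean of sample wells minus 3.6 SD, in any replicate, cut at about 0.56 in these data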;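 also: stock transfer was 300 nL into about 60 µL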
FGF22 binding: FGF22 (human) thermal shift binding | 340,000 compounds, 1.5% hits | calls only at 9.99 µM | Q9HCT0 | AID 651658 | recombinant FGF22 thermal shift, SYPRO orange fluorescence; percent of sucrose octasulfate shift, DMSO zero;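 active = melting point raised past a set limit in the mean and every replicate; inconclusive = no clear call; three in four hits are not shown here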
Target sequence (Q9HCT0 whole entry, looked up): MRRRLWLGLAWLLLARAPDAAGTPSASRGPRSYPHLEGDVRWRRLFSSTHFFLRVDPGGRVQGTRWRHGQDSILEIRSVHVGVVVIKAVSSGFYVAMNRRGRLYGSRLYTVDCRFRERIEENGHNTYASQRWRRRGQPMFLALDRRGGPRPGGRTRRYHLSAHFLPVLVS
Ecoli rRNA inh: inhibitors of bacterial rRNA selective over humanized ribosomes; AID 720706; 350,000 compounds, 1.6% hits; GFP signal change (wild-type ribosome), % (test concentration not listed); E. coli WT GFP vs humanized-ribosome RFP mutants, fluorescence, 24 h; active compounds read low; DMSO median 0, no signal -100;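 active = significant combined selectivity score with lowered wild-type GFP, culture density cut under 30%, mutant RFP and density less affected; inactive = any of these conditions unmet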; also: one replicate is shown; some compounds called inactive have numbers as strong as hits
Vif TR-FRET: HIV-1 Vif–A3G interaction blockers – biochemical, TR-FRET, GST-Vif 1-94, biotin-A3G peptide, dose response retest, primary screen (AID 1117319). inhibition, %; hits with a dose series show IC50 in µM. TR-FRET GST-Vif / biotin-A3G peptide binding; higher % means a stronger effect; test concentration not given here; strong numbers were not always called active. 260,000 compounds, 0.57% hits;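 active = above the screen mean plus three standard deviations and confirmed in dose response; inconclusive = results disagree or hit not tested in dose response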;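 also: Vif residues 1-94 fused to GST binding biotinylated APOBEC3G peptide 110-148; 0% = full assay without inhibitor and 100% = GST in place of GST-Vif; retest series ran down from 100 µM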
HNF4A DNA FP: change in binding of human HNF4 alpha to DNA; HNF4a-FITC DNA binding, fluorescence polarization, 1 h; activity change, % at 10 µM; 360,000 compounds, 0.3% hits; AID 1224865; in the data active = activity change above about 30%, passing the limit was not always enough;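 also: controls were the assay level and a saturating level of protein; the project sought stronger binding though the title names inhibitors; some compounds called inactive have numbers as strong as hits; positive values seem to mean higher polarization but the record does not say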
Ecoli rRNA inh OD600: second read-out of Ecoli rRNA inh, no call of its own (marks repeat the call); OD600 change, %; measured here: OD600 growth;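 optical density of the mix in the first replicate; 0 = DMSO median and -100 = no signal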
Ecoli rRNA inh RFP: second read-out of Ecoli rRNA inh, no call of its own (marks repeat the call); RFP signal change, %; measured here: RFP humanized mutant strains;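 first replicate; 0 = DMSO median and -100 = no signal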
Active calls of the source: *; i = inactive; ? = inconclusive; / = not tested or not shown; & = joins results of further samples. Not all compounds are listed; the hit share may differ from the screen's.

SMILES	ALR inh	AF4-AF9 inh	E coli growth	FGF22 binding	Ecoli rRNA inh	Ecoli rRNA inh OD600	Ecoli rRNA inh RFP	Vif TR-FRET	HNF4A DNA FP
Cc1nc2ccccc2n1CCc1nc2c3ccccc3nc(=S)n2[nH]1	92*	/	0.64	/	/	/	/	-2%	1.3
O=C(NCCCc1ccccc1)c1ccc(CS(=O)Cc2ccccc2Cl)o1 (centres undefined)	48	-1.4	0.6	i	-14	-35	9.7	/	2.3
CCOC(=O)CCc1c(C)nc2cc(-c3ccccc3OC)[nH]n2c1=O	12	-6.7	0.74	i	3	6	-0.1	-1%	1.0
C[C@H](NC(=O)C1CC(=O)N(c2ccc3c(c2)OCO3)C1)C(=O)NCc1ccco1 (some centres undefined)	28	1.4	0.7	i	18	8	0.5	5%	2.3
Cc1ccc(/C=N/NC(=O)CSc2nc3ccccc3[nH]2)o1	-18	-10	/	i	-6	-11	2.8	/	-1.9
O=C(CNC(=O)c1ccc(Cl)cc1)NCc1ccccn1	/	0.4	/	i	15	16	1.6	/	0.5
O=C(CN1CCN(c2ccc(O)cc2)CC1)Nc1ccc(SC(F)F)cc1	37	/	0.7	/	/	/	/	/	-0.3
Cc1c(NC(=O)c2ccc(Cl)c([N+](=O)[O-])c2)cccc1-n1cnnn1	-5	-2.2	0.66	i	28	9	5.9	-6%	-0.5
O=C(Cn1c(CN2CCCCC2)nc2ccccc2c1=O)Nc1ccccc1	-1	-35	0.64	i	2	-6	2.1	18%	-1.1
COc1ccc(-c2c[n+]3c(n2-c2ccccc2)CCCCC3)cc1	2	-2.9	0.65	i	-12	1	-1.6	?	-2.5
COC(=O)CCCNC(=O)c1ccc2oc(CCCc3ccccc3)nc2c1	-8	2.7	0.66	i	-25	-40	-12	3%	-0.7
CCn1cc(C(=O)NCc2ccc(Cl)cc2)c(=O)c2cc(S(=O)(=O)N(C)C)ccc21	-7	-20	/	i	-5	-4	0.9	0%	-1.4
CO[C@@H]1CN(C)C(=O)c2cc(NS(C)(=O)=O)ccc2OC[C@H](C)N(Cc2cocn2)C[C@H]1C	/	-3.2	/	i	2	5	-2.5	/	/
COC(=O)c1cc2sccc2n1CC(=O)Nc1cccc(SC)c1	-9	/	0.72	/	/	/	/	1%	-0.1
Cn1c(SCc2ccccc2)nnc1-c1ccc2nonc2c1	/	-0.4	0.68	i	18	15	-1.2	-4%	-1.2
O=C(NCCCN1CCOCC1)c1cc(C(=O)C2CC2)c[nH]1	-15	/	0.68	/	/	/	/	8%	2.0
N#CCSc1ncnc2sc3c(c12)CCC3	1	/	0.72	/	/	/	/	-3%	8.9
CC1=C(C(=O)N2CCOCC2)CC(CC(=O)NCCN2CCOCC2)C(=O)N1Cc1ccc(F)cc1 (centres undefined)	/	-1.5	/	i	17	4	1.3	-2%	-3.3
CCS(=O)(=O)Nc1ccc2c(c1)C(=O)N(C)[C@H]1CC[C@@H](CC(=O)NCCOC)O[C@@H]1CO2	/	1.0	/	i	3	-2	0.4	/	/
COCCCNc1ncnc2c1sc1nc(-c3ccco3)c3c(c12)CC(C)(C)OC3	15	-8.1	0.69	i	6	14	2.7	/	4.3
S=C(NCCc1ccccc1)NCC(c1ccco1)N1CCCCC1 (centres undefined)	-1	5.0	0.63	i	0	-5	1.7	5%	2.8
CC(C)NC(=O)N(C)C[C@H]1Oc2ccc(NS(C)(=O)=O)cc2CC(=O)N([C@H](C)CO)C[C@H]1C	/	-2.7	/	i	1	1	1.1	/	/
CCN(CC)S(=O)(=O)c1cccc(-c2nnc(SCC(=O)NC)n2CCc2ccccc2)c1	-16	/	0.71	/	/	/	/	-1%	1.1
CC(=O)N1C(=O)CC(C)N(C(C)=O)c2ccc([N+](=O)[O-])cc21 (centres undefined)	/	0.6	0.7	i	7	-8	-2.0	/	4.8
CN(C(=O)COc1cc(=O)n(C)c2ccccc12)c1ccc(Br)cc1	-17	-1.7	0.75	i	1	-1	-1.0	2%&-67%	0.9
c1ccc(C(c2nnnn2C2CCCC2)N2CCCCCC2)nc1 (centres undefined)	1	/	0.71	/	/	/	/	0%	-1.2
O=C(c1ccncc1)N1C[C@H]2[C@@H](c3ccccc31)[C@H](CO)N2Cc1ccccc1F	/	0.7	/	i	1	0	2.4	/	/
O=C(c1ccncc1)N1C[C@H]2[C@@H](c3ccccc31)[C@H](CO)N2C(=O)Nc1ccc(F)cc1	/	0.6	/	i	4	-5	-2.5	/	/
CO[C@@H]1CN(C)C(=O)c2ccc(NC(=O)c3cnccn3)cc2OC[C@H](C)N(CCc2ccccc2)C[C@H]1C	/	4.7	/	i	-4	-5	1.1	/	/
Brc1ccc(-c2nnc3sc(CN4CCC5(CC4)OCCO5)cn23)cc1	-9	2.7	0.74	i	14	8	-3.5	-10%&-2%	-1.7
C/C(=N\N(C)C)C1=C(O)c2ccccc2C1=O	59	/	/	/	/	/	/	-4%	3.1
COc1cc(/C=C/C(=O)N2CCN(CC(O)COc3ccccc3)CC2)cc(OC)c1OC (centres undefined)	-6	/	/	/	/	/	/	-8%	-0.6
CC(C)NC(=O)Nc1ccc2c(c1)CC(=O)N([C@H](C)CO)C[C@@H](C)[C@H](CN(C)Cc1ccccc1)O2	/	-1.4	/	i	5	4	0.5	/	/
COc1ccc(S(=O)(=O)NCCC(=O)NCc2ccc(F)cc2)cc1	6	/	0.65	/	/	/	/	4%	-1.7
CC(C)(C)OC(=O)NCCCCCc1nnc(SCc2ccccc2)o1	-13	-5.7	0.69	i	4	7	2.9	-5%	-0.1
COc1ccc2c3c(n(C)c2c1)[C@@H](CO)N(C(=O)CC1CC1)CC31CCN(C(=O)C2CC2)CC1	/	1.6	/	i	-1	-7	-1.9	/	/
CC(C)(C)OC(=O)N1CCC2(CC1)Oc1ccc(F)cc1C(=O)C21CC(c2ccccc2)=NO1 (centres undefined)	/	1.6	0.71	i	0	11	-16	/	2.4
O=c1c(N2CCCCC2)coc2ccccc12	/	/	0.69	/	/	/	/	-4%	1.1
O=C(Nc1ccc(C(F)(F)F)cc1)Nc1ccc2c(c1)[C@H]1C[C@H](CC(=O)N3CCc4ccccc4C3)O[C@@H](CO)[C@H]1O2	/	-8.6	/	i	-39	-69	1.0	/	/
CCOc1ccc(CCNC(=O)CSc2ncn[nH]2)cc1OCC	-2	3.4	0.7	i	11	2	2.3	/	-1.2

Record cards (already shown). Order of screens: ALR inh	AF4-AF9 inh	E coli growth	FGF22 binding	Ecoli rRNA inh	Ecoli rRNA inh OD600	Ecoli rRNA inh RFP	Vif TR-FRET	HNF4A DNA FP
Shown for `c1ccc(C(c2nnnn2C2CCCC2)N2CCCCCC2)nc1` (centres undefined) = 1	/	0.71	/	/	/	/	0%	-1.2
Shown for `CC(=O)N1C(=O)CC(C)N(C(C)=O)c2ccc([N+](=O)[O-])cc21` (centres undefined) = /	0.6	0.7	i	7	-8	-2.0	/	4.8
Shown for `CC(C)NC(=O)Nc1ccc2c(c1)CC(=O)N([C@H](C)CO)C[C@@H](C)[C@H](CN(C)Cc1ccccc1)O2` = /	-1.4	/	i	5	4	0.5	/	/

New compounds follow:
SMILES	ALR inh	AF4-AF9 inh	E coli growth	FGF22 binding	Ecoli rRNA inh	Ecoli rRNA inh OD600	Ecoli rRNA inh RFP	Vif TR-FRET	HNF4A DNA FP
CC(=O)C1=C(O)C(=O)N(Cc2ccccc2)C1c1cccc([N+](=O)[O-])c1 (centres undefined)	-14	-26	0.67	i	9	4	-1.6	1%	-0.2
CC(C)C(NC(=S)Nc1ccccc1)C(=O)O (centres undefined)	10	/	/	/	/	/	/	0%	-0.8
Cc1csc(SCC(=O)NC(=O)NCCC(C)C)n1	-3	-1.0	0.65	/	3	3	-0.1	4%	-4.2
CS/C(=N\S(=O)(=O)c1ccccc1)c1ccccc1	1	0.0	/	i	21	19	-7.1	-1%	5.5
Cc1[nH]c2ccccc2c1CCNC(=O)c1c(N)no[n+]1[O-]	56	5.0	0.69	i	-21*	1.4*	2.1*	/	4.8
COc1ccc(CCNS(=O)(=O)c2ccc3c(c2)CCN3C(=O)C2CC2)cc1OC	0	/	0.74	/	/	/	/	?	3.7
CCc1ccc(CN(C)CC(O)COc2cccc3ccccc23)cc1 (centres undefined)	/	0.0	0.59	i	-62	-81	-19	-3%	3.2
O=C(NCCCn1ccnc1)C(F)(F)C(F)(F)C(=O)NCCCn1ccnc1	-6	/	0.72	/	/	/	/	0%	-4.3
O=C1CC(c2ccccc2)Sc2nc(-c3ccccc3)c(-c3ccccc3)n21 (centres undefined)	12	/	0.74	/	/	/	/	-6%	-3.3
O=C(NC1CCCCC1)C1CCCN(S(=O)(=O)c2ccc(F)cc2)C1 (centres undefined)	/	0.1	0.69	i	3	10	-0.7	/	-1.0
CCOc1ccccc1NC(=O)N1CCCc2ccccc21	-16	-1.2	0.7	i	7	8	3.4	/	-3.2
CCC(OC(=O)c1cccs1)C(=O)NC1CCCCC1 (centres undefined)	/	/	0.71	/	/	/	/	0%	-5.4
O=c1[nH]c(=O)n(C2OC(CO)C(O)C2O)c2c1CCCC2 (centres undefined)	/	-4.1	/	i	7	9	-1.9	/	5.3
CC(=O)c1c(C)[nH]c(C(=O)CSc2nnc(-c3ccc(Cl)cc3)n2CC2CCCO2)c1C (centres undefined)	/	/	0.69	/	/	/	/	24%	-1.4
Cc1cccc(C)c1NC(=O)C1c2ccccc2OCC(=O)N1CC(F)(F)F (centres undefined)	/	4.6	/	i	7	7	-1.1	/	-1.8
CCN(CC(=O)N1CCOCC1)S(=O)(=O)c1ccc(F)cc1	0	0.6	0.68	i	7	14	-0.8	/	-1.6
c1ccc(SCCOCCN2CCc3ccccc3C2)cc1	-3	-2.3	0.62	i	-2	-3	0.7	-9%	-3.8
CN(C)S(=O)(=O)c1cccc(C(=O)C2=C3SC=C(c4ccccc4)N3CC2)c1	-3	/	0.74	/	/	/	/	3%	11
CSc1ccccc1NC(=O)C1CC(c2c(F)cccc2Cl)=NO1 (centres undefined)	-1	2.1	0.7	i	-25*	-20*	-4.8*	5%	-1.1
CC(NC(=O)c1ccc(C#N)cc1)C1CC2CCC1C2 (centres undefined)	8	1.4	0.71	i	-3	2	-2.2	/	3.3
CN(C)CCCN(Cc1ccccc1)C(=S)NCc1ccccc1	-1	3.3	0.73	i	2	7	3.4	-5%	3.0
Cn1c(=O)c(-c2ccccc2)nn2c3ccccc3nc12	6	/	0.73	/	/	/	/	-4%	-3.9
COc1ccccc1NC(=O)N[C@H]1CC[C@H](CC(=O)NCc2ccc(Cl)c(Cl)c2)O[C@H]1CO	/	0.8	/	i	-14	-20	1.1	/	/
COc1ccc(-c2cnc3c(c2)C(=O)N([C@H](C)CO)C[C@@H](C)[C@H](CN(C)C)O3)cc1	/	-13	/	i	3	-5	-0.5	/	/
CN(C)CCNC(=S)Nc1ccc(Br)cc1	9	-0.5	0.65	i	8	5	3.7	?	3.9
CCOC(=O)c1ccccc1NC(=O)c1cn(-c2ccc(C)c(C)c2)c(=O)c2ccccc12	-20	/	0.77	/	/	/	/	-22%	2.4
Cc1nc2ccccc2c(=O)n1NC(=O)c1ccc(Cl)c([N+](=O)[O-])c1	2	-1.8	0.7	i	2	0	-0.5	-3%	1.0
COc1ccc(NC(=O)c2cc(C)cc(C)c2)cc1[N+](=O)[O-]	-5	-0.4	0.71	i	7	0	1.7	1%	0.5
